# Menin MLL FP FL – displaces fluorescein MLL peptide from human menin. 290,000 tested, under 10 active. Fluorescence polarization, fluorescein-MLL peptide displacement from menin. FP activity change, % at 61.4 µM; inconclusive = falling polarisation curve, or a change in total fluorescence; inactive = total fluorescence flat and polarisation flat or rising; no compound was filed as active; the % refers to the polarisation; negative = inhibition;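 further: % of control where 0% means no effect; inhibitors lower the polarisation; unlabelled MLL peptide was the positive control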
# TRPV1 potentiator – potentiators of human vanilloid receptor 1 (TRPV1) | potentiation, % at 8.33 µM | AID 540277 | 320,000 tested, 0.02% active | TRPV1-expressing cells, Fluo-8 calcium influx, capsaicin EC20 potentiation; host cell line not named in the record; control for the full effect not named in the record; active means potentiation above 80%; inconclusive means 30% to 80%; inactive means below 30%; further: 0% is about no effect
# Target sequence (Q8NER1 whole entry, looked up): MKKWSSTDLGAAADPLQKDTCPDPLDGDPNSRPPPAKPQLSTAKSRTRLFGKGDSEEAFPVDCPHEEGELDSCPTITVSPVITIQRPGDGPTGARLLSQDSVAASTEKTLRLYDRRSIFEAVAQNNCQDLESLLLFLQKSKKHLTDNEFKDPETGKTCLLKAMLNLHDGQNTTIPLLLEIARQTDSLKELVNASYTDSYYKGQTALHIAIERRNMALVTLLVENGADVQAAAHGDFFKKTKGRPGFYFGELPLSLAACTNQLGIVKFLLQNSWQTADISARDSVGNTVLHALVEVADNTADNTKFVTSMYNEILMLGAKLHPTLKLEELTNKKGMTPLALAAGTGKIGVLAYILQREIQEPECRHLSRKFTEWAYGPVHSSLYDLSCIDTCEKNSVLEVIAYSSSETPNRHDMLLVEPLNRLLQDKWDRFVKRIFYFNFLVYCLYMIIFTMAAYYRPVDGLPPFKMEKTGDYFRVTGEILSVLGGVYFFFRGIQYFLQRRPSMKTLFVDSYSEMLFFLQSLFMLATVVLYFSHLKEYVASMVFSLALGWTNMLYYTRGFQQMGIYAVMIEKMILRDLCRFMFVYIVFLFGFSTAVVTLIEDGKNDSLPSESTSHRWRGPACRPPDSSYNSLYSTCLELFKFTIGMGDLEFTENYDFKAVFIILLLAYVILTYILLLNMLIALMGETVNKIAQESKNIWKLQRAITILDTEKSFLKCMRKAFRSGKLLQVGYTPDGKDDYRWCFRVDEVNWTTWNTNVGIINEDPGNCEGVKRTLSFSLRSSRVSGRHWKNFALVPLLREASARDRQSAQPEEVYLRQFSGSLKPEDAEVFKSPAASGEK
#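 Fluo-8 calcium influx in TRPV1-expressing cells, kinetic read (ex 480/em 520 nm). Compound added and read 3 min for agonist activity, followed by capsaicin at EC20 final and 2 min further read for enhancement.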
# ClpP mod – qHTS Assay for Activators of ClpP; purified B. subtilis ClpP, FRET peptide cleavage, 20 min; Potency, µM (highest dose often 57.5 µM), for inactives: top-dose activity change, negative = active; 340,000 tested, 1.9% active; active = well fitted falling curve with a large enough effect; inconclusive = small, poorly fitted or top-dose-only effect; inactive = no such curve, though single readings can be large or run the other way; further: potency means the concentration at half of the fitted maximal effect; the source files actives as falling curves though it sought activators and does not explain the sign; nearly all actives have a fitted effect of over 65% in size; many hits overshoot -100%
# Target sequence (P80244 whole entry, looked up): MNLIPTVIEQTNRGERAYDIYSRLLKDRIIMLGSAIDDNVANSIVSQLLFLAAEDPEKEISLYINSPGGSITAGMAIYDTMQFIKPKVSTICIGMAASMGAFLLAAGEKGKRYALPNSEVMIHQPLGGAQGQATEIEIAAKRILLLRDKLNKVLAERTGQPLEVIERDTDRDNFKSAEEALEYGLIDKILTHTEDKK
#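 Purified B. subtilis ClpP, 10 microg/mL final in Tris/HCl pH8 with KCl, BSA, glycerol and Tween-20, cleaved an Abz/nitrotyrosine-quenched decapeptide. Fluorescence (ex 320, em 430) was read at 0 and 20 min at room temperature. Delta was normalized to 5.8 microM ADEP and DMSO/no-enzyme controls.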
# Sfp inh – blocks B. subtilis Sfp PPTase activity | 310,000 tested, 3.5% active | Potency, µM, without a hit: max response, negative = inhibition, actives largely listed as inhibitors | Q9F4F7 | Biochemical Sfp PPTase activity, qHTS; active means well fitted inhibition curve with a large enough effect; inconclusive means small, poorly fitted or top-dose-only effect, or another doubt; inactive means no such curve, though single readings can be large or run the other way;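 further: the enzyme is Sfp with the accession as filed and its product quenches rhodamine fluorescence; potency means the concentration at half of the fitted maximal effect; 0% = enzyme reaction without inhibitor and -100% = no enzyme wells; top concentration of the series not given in the record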
#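 Sfp 15 nM + cpd, 15 min RT; start w/ rhodamine-CoA 5 uM, BHQ-2-YbbR 12.5 uM (final); 50 mM Hepes pH 7.6, 10 mM MgCl2, 0.01% NP-40, 0.01% BSA; read 525/598 nm at 0 and 30 min.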
# TRPML1 agonist – human mucolipin-1 channel agonism; TRPML1-expressing cells, Ca2+ dye fluorescence, FDSS; host cell line not named in the record; reference of the full effect not given here; activation, % (concentration not given with the values); 410,000 tested, 0.12% active; in the data active = activation above about 50%; inconclusive = about 30% to 50%; inactive = below about 30%; further: 0% is about no effect; the text of the record puts the active cut at 80%
#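 Kinetic FDSS Ca2+ read in Tet-induced TRPML1-DL cells (ABD Ca8 dye plus quencher, 45-90 min RT loading): baseline, then compound, then 110 s agonist window; EC80 agonist 54-4 at 4uM final added afterwards for a 110 s antagonist window.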
# TRPML1 inh – human mucolipin-1 channel inhibition; TRPML1-inducible cells, Ca2+ dye fluorescence, FDSS; hits give low values; inhibition of EC80 agonist-evoked calcium signal; activity change, negative = inhibition, % (concentration not given with the values); 390,000 tested, 0.02% active; AID 624415; Q9GZU1; in the data active means activity change below about -50%; inconclusive means about -30% to -50%; inactive means above about -30%;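 further: stimulus is agonist 54-4 at its EC80 concentration; on the % scale 0 is the no-effect control and ±100 the full control effect; compound concentration not given in the record; the text of the record puts the active cut at -80%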
#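 Calcium fluorescence in TRPML1-DL cells induced overnight with Tet: a 110 s read after compound pin addition, then a 110 s antagonist read after challenge with 54-4 at 4 uM final (EC80).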
# PINK1 expr mod – PINK1 expression modulation; PINK1 immunofluorescence, high-content cytometry, 24 h; AID 624263; 410,000 tested, 0.2% active; Potency, µM (doses to about 76.6 µM), for inactives: at the top dose activation (PINK1 increase), hits mostly activators; active = well fitted activation curve with a large enough effect; inconclusive = small, poorly fitted or top-dose-only effect; inactive = flat fitted curve, though single readings scatter; cell line not stated here;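 further: potency means the concentration at half of the fitted maximal effect; % of control where 0% means no effect; nearly all actives have a fitted effect of over 65% in size; a mitochondrial uncoupler was the plate control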
#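 A stable cell line was treated with compounds at 5 concentrations for 24 hours, with CCCP as control. PINK1 levels and mitochondrial localization were measured by immunofluorescence with mitochondrial, cell and nuclear markers after fixation, read by laser-scanning cytometry.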
# * marks the source's active call; other numbers are inactive results; u = inconclusive; x = no result given; & = joins results of further samples; [ ] = remark or other dose.
SMILES,Menin MLL FP FL,TRPV1 potentiator,ClpP mod,Sfp inh,TRPML1 agonist,TRPML1 inh,PINK1 expr mod
Cc1ccc(N(C)S(=O)(=O)c2ccc(-c3cc(C)no3)s2)cc1,5.2,-6,2.2%,4%,1.5,12,3.9%
Cc1cc(C)cc(NS(=O)(=O)c2ccc(NC(=O)C3CCCCC3C(=O)O)cc2)c1 (stereo not given),1.4,12,0.1%,12%,-0.5,3,0.7%
Cc1ccc(C)c(N2CCN(C(=O)CCS(=O)(=O)c3ccc4c(c3)oc(=O)n4C)CC2)c1,x,0,0.5%&-3.6%,2%,-1.2&-1.0,-13&3,0.1%&-0.6%
CCC(=O)NCCc1nc(-c2ccccc2)no1,x,x,-0.5%,x,0.0,9,3.1%
Cc1ccc(S(=O)(=O)c2nc(C)c3c(n2)CCC3)cc1,-1.0,-10,1.1%,-6%,-0.2,-10,-1.4%
CSc1c(-c2ccccc2)nc2ccc(Cl)cc2c1C(=O)O,4.6,12,-2.5%,-2%,2.4,-1,0.3%
Cc1ccc(C(=O)NCC(c2cccnc2)N2CCc3ccccc3C2)cc1C (stereo not given),x,x,-2.9%,x,-0.5,-2,-0.5%
O=C(Nc1nc2ccccc2[nH]1)C1CC(=O)N(c2ccc3c(c2)OCCO3)C1 (stereo not given),3.8,2,-0.5%,12%,0.7,-4,0.7%
COC(=O)C1CCN(C(=O)CN2C(=O)c3ccccc3S2(=O)=O)CC1,x,-7,x,x,-0.4,8,2.0%
Cc1cc2nc(-c3ccc(=O)[nH]c3)n(Cc3ccccc3)c2cc1C,-1.5,-5,u,-3%,-0.5,-4,8.5%
CCN1/C(=C2/OC(=S)N(C)C2=O)Sc2ccccc21,u,12,-1.2%,-22%,0.4,-2,6.8%
Cc1nc2ccc(C(=O)O)cc2c2c1CC(CN)O2 (stereo not given),0.3,-2,3.7%,1%,-0.2,26,0.1%
Cc1ccnc2nc(C(=O)N3CCN(c4ccc(F)cc4)CC3)nn12,4.0,-7,2.8%,13%,0.7,-10,-1.7%
Cc1nc2nc(SCC(=O)Nc3ccccc3Cl)nn2c(C)c1Cc1ccccc1,x,x,-19%,x,4.1,7,-0.4%
C=CCC(=O)N1CCCC(CO)(Cc2ccc(F)cc2F)C1 (stereo not given),-0.8,-7,x,6%,-0.3,23,-1.5%

# Five compounds from above, ordered by their value in PINK1 expr mod, highest first:
structure | Menin MLL FP FL | Sfp inh | TRPML1 inh | PINK1 expr mod
Cc1cc2nc(-c3ccc(=O)[nH]c3)n(Cc3ccccc3)c2cc1C | -1.5 | -3% | -4 | 8.5%
Cc1ccc(N(C)S(=O)(=O)c2ccc(-c3cc(C)no3)s2)cc1 | 5.2 | 4% | 12 | 3.9%
Cc1cc(C)cc(NS(=O)(=O)c2ccc(NC(=O)C3CCCCC3C(=O)O)cc2)c1 (stereo not given) | 1.4 | 12% | 3 | 0.7%
C=CCC(=O)N1CCCC(CO)(Cc2ccc(F)cc2F)C1 (stereo not given) | -0.8 | 6% | 23 | -1.5%
Cc1ccnc2nc(C(=O)N3CCN(c4ccc(F)cc4)CC3)nn12 | 4.0 | 13% | -10 | -1.7%

# An excerpt of these results, with bars between the fields.
structure | Menin MLL FP FL | TRPV1 potentiator | ClpP mod | Sfp inh | TRPML1 agonist | TRPML1 inh | PINK1 expr mod
CCC(=O)NCCc1nc(-c2ccccc2)no1 | x | x | -0.5% | x | 0.0 | 9 | 3.1%
Cc1ccc(S(=O)(=O)c2nc(C)c3c(n2)CCC3)cc1 | -1.0 | -10 | 1.1% | -6% | -0.2 | -10 | -1.4%

# Next structures.
SMILES,Menin MLL FP FL,TRPV1 potentiator,ClpP mod,Sfp inh,TRPML1 agonist,TRPML1 inh,PINK1 expr mod
COc1cccc(C(NC(C)=O)c2nc(-c3csc4ccccc34)cs2)c1 (stereo not given),x,x,1.3%,x,-0.8,x,1.5%
O=C(c1ccc(-c2ccccc2Cl)o1)N1CCN(c2ccccc2O)CC1,x,-23,x,x,3.5,-8,16%
COCCOC(=O)c1c(N)n(CCCN2CCOCC2)c2nc3ccccc3nc12,5.2,2,-0.2%,10%,-0.6,5,-0.7%
CCCCN(C(=O)CC1CCCC1)c1c(N)n(CC(C)C)c(=O)[nH]c1=O,x,12,-1.9%,x,-0.3,-4,0.7%
COc1cc(/C=C2\CCn3c2nc2cc(C(=O)O)ccc2c3=O)ccc1OC(F)F,-0.4,10,0.5%,7%,0.2,-3,2.6%
COc1ccc(CCN2CC(C(=O)OCC(=O)NC(Cc3ccccc3)C(C)=O)CC2=O)cc1OC (stereo not given),x,x,0.0%,x,-0.7,2,-0.1%
C/C(=N\NC(=O)C1CC1)c1cccs1,-2.3,-2,-7.4%,24%,-0.1,20,-0.4%
CCn1ccnc1CNC(=O)C1CCC(=O)N(Cc2cccc(C(F)(F)F)c2)C1 (stereo not given),9.1,18,-1.4%,13%,-0.6,-5,0.4%
O=C1CC(c2ccccc2Cl)CC(O)=C1C=NCCCO (stereo not given),-2.0,-26,-3.3%,3%,-0.3,-8,1.4%
COc1ccc2c(-c3ccccc3)cc(N3CCOCC3)nc2c1,2.7,9,32µM*,u,3.2,10,0.6%
COc1ccc(CCN(Cc2cccs2)S(=O)(=O)c2ccc(-n3cnnn3)c(OC)c2)cc1OC,2.1,5,2.0%,19%,0.2,8,2.4%[38.3 µM]
Cc1cc(NC(=O)CSc2nnc(-c3ccccc3F)n2C)no1,x,-10,0.5%,x,0.8,0,0.7%
O=C(N/N=C/c1cc2ccccc2nc1Cl)[C@H]1C[C@@H]1c1ccccc1,x,-15,-12%,-1%,2.8,21,0.0%
CC(CCc1ccccc1)NC(=O)CCNS(=O)(=O)c1ccccc1 (stereo not given),x,u,x,x,-1.1,4,0.8%
CCOC(=O)N1CCN(S(=O)(=O)c2ccc(OC)c(OC)c2)CC1,2.2,1,1.9%,23%,0.7,-22,2.3%
Cc1cc(C(=O)O)sc1C,u,19,-6.9%,12%,-0.2,15,3.1%[38.3 µM]
Cn1cnc(S(=O)(=O)N2CCN(c3ccc(F)cc3)CC2)c1,-2.6,-2,-3.6%,16%,-0.5,13,1.7%
Cc1snc2sc(C(=O)c3ccc(Br)cc3)c(N)c12,3.2,3,-0.7%,u,0.7,-15,u
COC(=O)c1c[nH]c(=O)c2ccccc12,0.5,-6,x,-3%,-0.3,6,-0.1%
COc1ccc(NC(=O)CN2CCN(CC(=O)Nc3ccccc3F)CC2)cc1OC,-2.2,3,-5.3%&-3.2%,10%,-0.4&-0.9,-15&13,-0.8%&-1.5%
Cc1nc(-c2cccc(NC(=O)COc3ccc(Cl)cc3)c2)cs1,x,0,1.9%,11%,3.5,8,u
O=C(/C=C/c1cccc([N+](=O)[O-])c1)OCC(=O)c1ccccc1,2.8,0,0.7%,6%,1.7,10,1.2%
O=C(NCc1ccc(-c2nc3ccccc3s2)cc1)c1ccc(Br)o1,0.3,15,-9.9%,17%,0.0,-8,6.4%
Cc1ccc(NC(=O)c2cc3c(Cl)nc4ccc(C)cc4c3s2)c(Cl)c1,x,x,4.6%,x,0.0,-4,-1.5%
Cc1ccc(Cl)cc1NC(=O)C1COc2ccccc2O1 (stereo not given),0.2,2,-3.0%,-3%,1.3,33,4.7%
C#CCOc1c(Cl)cc(/C=C2/C(=O)ON=C2C)cc1OC,-7.2,5,0.3%,56µM*,-0.8,21,3.7%
COc1ccc(OCC(=O)N/N=C/c2cccc3cccnc23)cc1,x,x,2.8%,x,-0.7,9,1.3%
CC(C)(C)c1ccc(OCCNC(=O)c2ncn[nH]2)cc1,-0.8,16,-0.8%,6%,-0.4,2,0.0%
COc1ccc(-c2nc3cnc(N4CCN(C)CC4)nc3n(C)c2=O)cc1,-7.0,x,x,27%,x,x,-0.6%
COc1ccc(C2c3c(-c4ccccc4O)n[nH]c3C(=O)N2Cc2ccco2)cc1 (stereo not given),1.2,6,0.0%,-29%,2.4&4.4,6&29,-0.9%&0.6%
O=c1c2nnn(Cc3ccccc3)c2ncn1C/C=C/c1ccccc1,-0.4,11,1.4%,8%,2.2,16,0.9%
COc1ccc(C(C)C)cc1S(=O)(=O)N1CCC(C(=O)N2CCN(C)CC2)CC1,2.8,4,-0.7%,1%,0.6,-14,1.8%
O=C(C1CCN(S(=O)(=O)c2ccccc2)CC1)N1CCN(c2ccccc2)CC1,1.9,7,-8.5%,1%,-0.3,-11,0.2%
COc1ccc(S(=O)(=O)N2CCN(C(=O)c3cccs3)CC2)cc1OC,0.1,2,0.2%,4%,0.2,2,1.0%[38.3 µM]
CC(C)Sc1ccc([N+](=O)[O-])cc1C(=O)Nc1ccncc1,0.9,-2,x,2%,0.2,-13,-0.8%
NS(=O)(=O)c1ccc2nc(NC(=O)Nc3ccc(F)cc3)sc2c1,15,u,x,2%,1.3,-4,u
Cc1c(-c2nc3ccccc3[nH]2)cnn1C,x,3,-2.4%,x,1.8,15,0.3%
COc1ccc(C(=O)c2ccc3oc(-c4ccc(OC)cc4)c(C#CCCO)c3c2)cc1,x,x,-1.1%,x,-0.5,12,5.1%
CCc1ccc(N2CC(c3nc4ccccc4n3Cc3ccccc3C)CC2=O)cc1 (stereo not given),x,x,-8.8%,x,-0.4,35,1.9%
C[C@H](CO)N1C[C@H](C)[C@@H](CN(C)C(=O)c2cccnc2)Oc2ncc(Br)cc2C1=O,x,x,-0.4%,x,0.8,4,0.6%
Cc1noc(C)c1C(=O)N1CCC1(C)C(=O)NS(=O)(=O)c1ccccc1Cl (stereo not given),x,x,0.8%,x,-0.7,x,-1.1%
CC(NC(=O)c1cccs1)c1nnc(SCc2ccc(Cl)cc2Cl)n1C (stereo not given),2.0,6,2.0%,2%,-0.6,24,1.5%
COc1ccc(NC(=O)CSc2nc(-c3ccco3)cc(C(F)(F)F)n2)cc1OC,x,x,1.5%,x,-0.9,-8,0.2%
C=CC[C@@H](CC(=O)N[C@@H](CO)Cc1ccccc1)C(=O)N[C@H](COC(=O)[C@H](CC=C)CC(=O)OC(C)(C)C)Cc1c[nH]c2ccccc12,x,x,-0.5%,x,0.8,13,-0.3%
O=C(/C=C/c1ccccc1[N+](=O)[O-])OCC(=O)N1CCN(c2ccccc2)CC1,x,x,-0.8%,x,-0.9,3,1.2%
CCN(CC)CCC(=O)N1C/C(=C/c2ccccc2)C(=O)/C(=C\c2ccccc2)C1,x,x,-0.6%,x,-0.2,-6,-4.5%
CCOc1ccccc1NC(=O)Nc1cccc(C(C)=O)c1,3.2,-13,3.3%,8%,-0.3,-18,u

# Screening results from PubChem.
